Vaccinia mCherry – inhibitors of vaccinia virus infection (mCherry reporter signal); Vaccinia virus mCherry reporter infection, fluorescence; about a quarter of the inactives have no number; AID 720579; Potency, µM (titrated, usually from 36.5 µM), for inactives: at the highest dose activity change, negative = inhibition, usual class: inhibitors; actives 0.63% (n = 310,000); active = well fitted inhibition curve with a large enough effect; inconclusive = small, poorly fitted or top-dose-only effect; inactive = no such curve, though single readings can be large or run the other way; tested in A549 cells; further: nearly all actives have a fitted effect of over 35% in size; inactives centre near -10
VACV Venus inh – inhibitors of vaccinia virus (Venus reporter) | Vaccinia virus Venus reporter expression, fluorescence | Potency, µM (highest dose often 36.5 µM), without a hit: top-dose activity change, negative = inhibition, hits mostly inhibitors | actives 0.46% (n = 330,000); active means well fitted inhibition curve with a large enough effect; inconclusive means small, poorly fitted or top-dose-only effect; inactive means no such curve, though single readings can be large or run the other way; tested in A549 cells; further: nearly all actives have a fitted effect of over 30% in size; inactives centre near -10
An asterisk follows results filed as active; & = joins results of further samples; [ ] = dose if it differs, or a comment. On the % scale 0 is the no-effect control and ±100 the full control effect; potency means the concentration at half of the fitted maximal effect.

Screening CCc1cc2c(=O)n(Cc3ccco3)c(SCc3c(C)noc3C)nc2s1 returned Vaccinia mCherry inconclusive and VACV Venus inh inconclusive.
CC(C)OC(=O)c1cccc(C(=O)Oc2ccccc2)n1 was read as Vaccinia mCherry -15% and VACV Venus inh -17%.
Screening NC(=O)C1(N2CCCCC2)CCN(CC(=O)Nc2ccccc2-c2ccccc2)CC1 returned Vaccinia mCherry inactive and VACV Venus inh -4%.
For NC(=O)C1CCN(C2=C(NS(=O)(=O)c3ccccc3)C(=O)c3ccccc3C2=O)CC1 the results were Vaccinia mCherry -27% and VACV Venus inh -16%.
For Cc1cccc(NS(=O)(=O)c2coc(C(N)=O)c2)c1C the results were Vaccinia mCherry -9% and VACV Venus inh 5%.
Cc1ccc(CN2CCNC(=O)C2CC(=O)O)cc1 (centres undefined) was read as Vaccinia mCherry inactive and VACV Venus inh 0%.
`O=C(CCCN1C(=O)c2cccc3cccc(c23)C1=O)NCc1cccs1` gave Vaccinia mCherry -7% and VACV Venus inh -7%.
`NS(=O)(=O)c1cccc(NC(=O)/C=C/c2cccs2)c1` gave Vaccinia mCherry -10% and VACV Venus inh 13%.
Screening Cn1cnc([N+](=O)[O-])c1Sc1n[nH]c(N)n1 returned Vaccinia mCherry inactive and VACV Venus inh -7%.
C=CCSc1nsc(NC(=O)Nc2cccc(C(C)=O)c2)n1 was read as Vaccinia mCherry -9% and VACV Venus inh -29%.
COc1ccc(Cl)cc1NC(=O)CN(C)C(=O)c1ccc(N2CCCCC2)c([N+](=O)[O-])c1 was read as Vaccinia mCherry inconclusive and VACV Venus inh inconclusive.
`O=C(Cc1ccc(F)cc1)NCc1cccnc1` gave Vaccinia mCherry inactive and VACV Venus inh 0%.
For CC(C)c1cccc(-c2csc(C(C)(O)c3cccc(F)c3)n2)c1 (centres undefined) the results were Vaccinia mCherry -4% and VACV Venus inh -15%.
For CC(=O)N(C)c1ccc(NC(=O)C(c2ccccc2)c2ccccc2)cc1 the results were Vaccinia mCherry -12% and VACV Venus inh -4%.
For Cc1ccc(S(=O)(=O)N2CCN(c3ccccc3)CC2)cc1 the results were Vaccinia mCherry -13% and VACV Venus inh -8%.
CCOC(=O)c1c(NCc2ccccc2)n[nH]c1C was read as Vaccinia mCherry -16% and VACV Venus inh -11%.
`Cn1cc(/C(Cc2ccccc2)=N\O)c2ccccc21` gave Vaccinia mCherry inconclusive and VACV Venus inh inconclusive.
For Cc1ccc(NC(=O)c2nc3nccc(C)n3n2)c(C)c1 the results were Vaccinia mCherry -4% and VACV Venus inh -12%.
CN(CCCNC(=O)C1CCCN(S(=O)(=O)c2cnc[nH]2)C1)c1ccccc1 (centres undefined) was read as Vaccinia mCherry inactive and VACV Venus inh -6%.
For CCOC(=O)c1[nH]c(C)c(C(=O)c2ccc(C)cc2)c1C the results were Vaccinia mCherry inconclusive and VACV Venus inh -22%.
Screening Cc1nc(CCNC(=O)Cc2ccc(F)cc2)cs1 returned Vaccinia mCherry 1% and VACV Venus inh -5%.
Screening N/C(CS(=O)(=O)c1ccccn1)=N\OC(=O)c1ccccc1Cl returned Vaccinia mCherry inactive and VACV Venus inh -5%.
For COc1cccc(N2CCN(C(=O)c3ccc(Cl)c(S(=O)(=O)N4CCCCCC4)c3)CC2)c1 the results were Vaccinia mCherry inactive and VACV Venus inh -9%.
For CC(NS(=O)(=O)c1ccccc1[N+](=O)[O-])c1ccccn1 (centres undefined) the results were Vaccinia mCherry -3% and VACV Venus inh -14%.
For CSc1nnc(CNS(=O)(=O)c2ccc(F)cc2)n1C the results were Vaccinia mCherry 24% and VACV Venus inh -1%.
`CCOc1ccc(NCC(=O)N/N=C/C=C/c2ccccc2)cc1` gave Vaccinia mCherry inconclusive and VACV Venus inh -9%.
Screening O=c1ccc(-c2nc3cc(Cl)ccc3n2Cc2ccccc2)c[nH]1 returned Vaccinia mCherry -15% and VACV Venus inh -29%.
Screening O=c1[nH]c(Nc2ccccc2)cc2cc(Br)ccc12 returned Vaccinia mCherry inconclusive and VACV Venus inh inconclusive.
Screening COc1ccc(CNC(=O)C2=C(C)C(=O)OC23CCCCC3)cc1OC returned Vaccinia mCherry 8% and VACV Venus inh -1%.
`COC(=O)[C@@]1(Cc2ccc(OC)cc2)[C@H]2c3cc(C(=O)N(C)C)n(CCSCCO)c3C[C@H]2CN1C(=O)c1ccccc1` gave Vaccinia mCherry inactive and VACV Venus inh -10%.

Quoted at random: 7 compounds from above
`COC(=O)[C@@]1(Cc2ccc(OC)cc2)[C@H]2c3cc(C(=O)N(C)C)n(CCSCCO)c3C[C@H]2CN1C(=O)c1ccccc1` gave Vaccinia mCherry inactive and VACV Venus inh -10%.
Screening O=c1[nH]c(Nc2ccccc2)cc2cc(Br)ccc12 returned Vaccinia mCherry inconclusive and VACV Venus inh inconclusive.
Screening N/C(CS(=O)(=O)c1ccccn1)=N\OC(=O)c1ccccc1Cl returned Vaccinia mCherry inactive and VACV Venus inh -5%.
For CCOC(=O)c1[nH]c(C)c(C(=O)c2ccc(C)cc2)c1C the results were Vaccinia mCherry inconclusive and VACV Venus inh -22%.
For COc1cccc(N2CCN(C(=O)c3ccc(Cl)c(S(=O)(=O)N4CCCCCC4)c3)CC2)c1 the results were Vaccinia mCherry inactive and VACV Venus inh -9%.
Screening COc1ccc(CNC(=O)C2=C(C)C(=O)OC23CCCCC3)cc1OC returned Vaccinia mCherry 8% and VACV Venus inh -1%.
For Cc1ccc(NC(=O)c2nc3nccc(C)n3n2)c(C)c1 the results were Vaccinia mCherry -4% and VACV Venus inh -12%.

Other structures:
Screening COC(=O)CNC(=O)C1Nc2ccc(OC(F)(F)F)cc2C2C=CCC12 (centres undefined) returned Vaccinia mCherry -5% and VACV Venus inh -20%.
CCN(CC)CCCN(Cc1cc2cc(OC)ccc2[nH]c1=O)C(=O)Nc1ccccc1 was read as Vaccinia mCherry 16% and VACV Venus inh -5%.
`O=C(Cn1cc(C(F)(F)F)ccc1=O)Nc1cccc(S(=O)(=O)N2CCOCC2)c1` gave Vaccinia mCherry -14% and VACV Venus inh -4%.
`COc1ccc(CNC(=O)CC(c2ccc(OC)c(OC)c2)N2Cc3ccccc3C2=O)cc1` (centres undefined) gave Vaccinia mCherry 14% and VACV Venus inh -4%.
For O=C1c2ccccc2C(c2nnnn2-c2ccc3c(c2)OCCO3)N1Cc1ccc2c(c1)OCO2 (centres undefined) the results were Vaccinia mCherry 5% and VACV Venus inh 8%.
Screening O=C(CSc1ncc(-c2ccc(F)cc2)[nH]1)N1CCCCC1 returned Vaccinia mCherry -1% and VACV Venus inh -14%.
CN(C)c1ccc(/C=C/c2ccccn2)cc1 was read as Vaccinia mCherry inconclusive and VACV Venus inh 139%[activator].
Screening C=CCn1c(=O)c(C(=O)NC2CC2)c(O)c2cc(OC)c(OC)cc21 returned Vaccinia mCherry -17% and VACV Venus inh -13%.
Screening O=C1C=C(NCc2ccc(Cl)c(Cl)c2)C2(CCCCC2)O1 returned VACV Venus inh -28%.
Cc1cc(C)c2c(=O)[nH]c(SCC(=O)Nc3ccc(Br)cc3)nc2n1 was read as Vaccinia mCherry -13% and VACV Venus inh -3%.
For CC(C)Cn1c(-c2cccs2)nc2nc3ccccc3nc21 the results were VACV Venus inh -10%.
`Cc1cc(C)cc(NC(=O)CSc2nc3c(c(=O)[nH]2)CN(Cc2ccc(F)cc2)CC3)c1` gave Vaccinia mCherry -9%&-14% and VACV Venus inh 4%&-10%.
CCOC(=O)c1cnc2ccc(OCC)cc2c1Nc1cc(Cl)c(OC)cc1OC was read as Vaccinia mCherry -1% and VACV Venus inh -11%.
`Nc1nc(SCc2ccc(Cl)cc2Cl)nc2nc3c(cc12)CCCC3` gave Vaccinia mCherry inconclusive and VACV Venus inh inconclusive.
Cc1ccc(S(=O)(=O)N2CCN(C(=O)CCC(=O)Nc3ccc(Br)c(C)c3)CC2)cc1 was read as Vaccinia mCherry -27% and VACV Venus inh -27%.
O=C(Nc1ccc(N2CCN(c3ccc(F)cc3)CC2)c(C(=O)O)c1)c1ccccc1F was read as Vaccinia mCherry -1% and VACV Venus inh -2%.
Cc1ccc(-c2nc3ccc(Cl)cn3c2Nc2ccccc2)o1 was read as Vaccinia mCherry -9% and VACV Venus inh -2%.
CCOC(=O)C(C)Sc1nnc(CSc2nc3nc(C)cc(C)n3n2)o1 (centres undefined) was read as Vaccinia mCherry -14% and VACV Venus inh -9%.
Screening COc1ccccc1N1C(=O)S/C(=C\c2cccs2)C1=O returned Vaccinia mCherry -10% and VACV Venus inh -14%.
For Cc1cc2c(SCc3ccccc3Cl)nc(N)nc2nc1C the results were Vaccinia mCherry inconclusive and VACV Venus inh 6%.
For Cc1ccc(S(=O)(=O)N2CCCOC2CNC(=O)C(=O)NCc2ccc3c(c2)OCO3)cc1 (centres undefined) the results were Vaccinia mCherry -24% and VACV Venus inh -24%.
Cc1cc(/C=N/NC(=O)c2cccnc2)c(C)n1CC(C)C was read as Vaccinia mCherry -14% and VACV Venus inh 0%.
`Cc1nnc(SCC(=O)NCC2COc3ccccc3O2)s1` (centres undefined) gave Vaccinia mCherry inactive and VACV Venus inh -10%.
`Cc1nc(C(Cl)(Cl)Cl)nc2[nH]ccc(=O)c12` gave Vaccinia mCherry -12% and VACV Venus inh -15%.
`COc1ccc(NC(=O)C(CC(=O)O)Cc2ccc(C)cc2)cc1` (centres undefined) gave Vaccinia mCherry inactive and VACV Venus inh -12%.
For COc1ccc(NC(=S)N2CCC(N(C)CCN3CCOCC3)CC2)cc1Cl the results were Vaccinia mCherry inactive and VACV Venus inh -12%.
Screening CCCCCCn1c(=O)n2n(c1=O)[C@@H]1CN(S(=O)(=O)c3ccc(C)cc3)C[C@]1(O)[C@@H](OC(=O)NCC1CCCCC1)C2 returned Vaccinia mCherry -10% and VACV Venus inh -13%.
For CC(=O)c1cccc(-c2ccc3c(c2)C(C)(Cc2ccccc2F)C(=O)N3)c1 (centres undefined) the results were Vaccinia mCherry inactive and VACV Venus inh -17%.
Screening CC(=O)OC1C2CCC1C(N1CCCC1)CC2 (centres undefined) returned Vaccinia mCherry -9% and VACV Venus inh -9%.
`CC1(C)C2CCC1(C)C(OCCNCCOC(=O)Nc1ccccc1)C2` (centres undefined) gave Vaccinia mCherry -8% and VACV Venus inh -4%.
CCCC1CC(CSc2ncn[nH]2)OC1=O (centres undefined) was read as Vaccinia mCherry -12% and VACV Venus inh -7%.
For CC(C)C(=O)NC(=S)Nc1ccc(S(=O)(=O)Nc2ccccc2)cc1 the results were Vaccinia mCherry -28% and VACV Venus inh -24%.
For O=C(N/N=C/c1ccc(OCCCF)cc1)c1cc(OCC(F)(F)F)ccc1OCC(F)(F)F the results were VACV Venus inh -23%.
Screening COc1ccc(OC)c(/C=N/NC(=O)c2cc3c(OC)cccc3[nH]2)c1 returned Vaccinia mCherry -12%[7.34 µM] and VACV Venus inh -18%[7.34 µM].
`CN(C)c1ccc(C=Cc2cnccn2)cc1` gave Vaccinia mCherry inconclusive and VACV Venus inh 2%.
For CCn1c(CCNC(=O)c2ccc(Cl)cc2)n[nH]c1=S the results were VACV Venus inh -10%.
For CC(OC(=O)c1cc(S(=O)(=O)N2CCOCC2)ccc1Br)C(=O)N1CCOCC1 (centres undefined) the results were Vaccinia mCherry -20% and VACV Venus inh -14%.
For COc1ccc(OC)c(C(=O)COC(=O)c2cc(C)oc2C)c1 the results were Vaccinia mCherry -7% and VACV Venus inh -20%.
`CC1(C)CN(c2ccc(Br)cc2Br)C1=O` gave Vaccinia mCherry inactive and VACV Venus inh -10%.
Screening CC(C)(C)NCC(=O)c1c[nH]c2ccccc12 returned Vaccinia mCherry inactive and VACV Venus inh -5%.
`Cc1cc(C)n(-c2ncnc3c2oc2ccccc23)n1` gave VACV Venus inh -20%.
For O=C(/C=C/c1ccc(S(=O)(=O)N2CCOCC2)cc1)NC(=S)Nc1ccc(Cl)cc1Cl the results were Vaccinia mCherry inactive and VACV Venus inh -10%.
CCCNC(=O)c1cc2c(c(-c3cccc(-c4cc5ccccc5o4)c3)n1)[C@@H](CCO)N(C(=O)NC(C)C)C2 was read as Vaccinia mCherry inconclusive and VACV Venus inh inconclusive.
For CCc1ccc(S(=O)(=O)c2nnn3c2nc(Nc2ccc(NC(C)=O)cc2)c2sccc23)cc1 the results were Vaccinia mCherry -8% and VACV Venus inh -13%.
Screening Nn1c(SCC(=O)Nc2ccc(F)cc2)nnc1-c1ccccn1 returned Vaccinia mCherry -7% and VACV Venus inh -5%.
`CN(c1ccccc1)S(=O)(=O)c1cccc(NC(=O)Cc2ccc(Cl)cc2)c1` gave Vaccinia mCherry inconclusive and VACV Venus inh -26%.
`Cc1cc(O)c(C(C)C)cc1N=Nc1ccccc1C(=O)O` gave Vaccinia mCherry -15% and VACV Venus inh 15%.
Screening CCCN1CCN(CC2=C(C(=O)OCC)C(c3cccc(OC)c3OC)NC(=O)N2)CC1 (centres undefined) returned Vaccinia mCherry -2% and VACV Venus inh 6%.
COc1ccc(C=O)cc1OC(=O)N1CCOCC1 was read as Vaccinia mCherry inactive and VACV Venus inh -3%.
`CC(=O)N1CCC(N(CCN2CCOCC2)C(=S)Nc2cc(C)cc(C)c2)CC1` gave Vaccinia mCherry -20% and VACV Venus inh 10%.
`Cc1noc(C)c1S(=O)(=O)N(C)C[C@H]1OCc2cn(nn2)CCCC(=O)N([C@H](C)CO)C[C@@H]1C` gave Vaccinia mCherry inactive and VACV Venus inh -5%.
O=C(NCCc1ccccc1)C(=O)NCC(c1cccnc1)N1CCN(c2ccccc2F)CC1 (centres undefined) was read as Vaccinia mCherry -23% and VACV Venus inh inconclusive.
`C[C@H](CO)N1C[C@H](C)[C@@H](CN(C)S(=O)(=O)c2ccccc2)Oc2ccc(NC(=O)c3ccncc3)cc2C1=O` gave Vaccinia mCherry -19% and VACV Venus inh -14%.

Bioassay records as filed in PubChem BioAssay.
